Screening data as filed in PubChem BioAssay.
VDR inhibitor – inhibitors of human vitamin D receptor | P11473 | VDR-SRC2-3 peptide fluorescence polarization, 2 h | Potency, µM, for the others: max response, negative = inhibition, hits mostly inhibitors | 0.93% of 400,000 active | AID 504847; active = well fitted inhibition curve with a large enough effect; inconclusive = small, poorly fitted or top-dose-only effect, or another doubt; inactive = no such curve, though single readings can be large or run the other way; note: series mostly up to about 120 µM
Target sequence (P11473 whole entry, looked up): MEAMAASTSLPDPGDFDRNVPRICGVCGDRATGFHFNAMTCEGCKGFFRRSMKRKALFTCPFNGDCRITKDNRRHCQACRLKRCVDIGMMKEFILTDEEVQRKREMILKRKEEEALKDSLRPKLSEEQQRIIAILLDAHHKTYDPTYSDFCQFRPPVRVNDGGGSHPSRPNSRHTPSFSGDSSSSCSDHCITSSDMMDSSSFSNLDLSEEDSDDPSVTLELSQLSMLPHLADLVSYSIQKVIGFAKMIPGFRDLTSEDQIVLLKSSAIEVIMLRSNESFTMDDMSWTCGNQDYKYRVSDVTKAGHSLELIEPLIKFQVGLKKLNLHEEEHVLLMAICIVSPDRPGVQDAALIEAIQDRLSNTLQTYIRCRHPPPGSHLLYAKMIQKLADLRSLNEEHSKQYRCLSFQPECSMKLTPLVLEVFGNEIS
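VDR–SRC2-3 interaction, FP format. Cmpds 23 nl via pintool, brief spin, 2 h ambient incubation.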
* = called active by the depositor; ? = inconclusive; & = joins results of further samples. % is set by controls: 0 for no effect and ±100 for the full control effect; potency is the fitted concentration of half-maximal effect.

SMILES | VDR inhibitor
CCN1CCN(C(=O)c2ccccc2NS(=O)(=O)c2ccc(Cl)cc2)CC1 | -17.5%
Cc1nn(C)cc1S(=O)(=O)N1CCCC(C(=O)O)C1 (configuration not stated) | 7.1%
CC1Cc2ccccc2N1C(=O)CN1CCN(S(=O)(=O)c2cccs2)CC1 (configuration not stated) | -5.2%
COc1ccc(OCC(=O)Nc2ccc(N3CCN(Cc4ccccc4F)CC3)cc2)cc1 | -16.2%
CCn1c(CN2CCN(c3cccc(Cl)c3)CC2)nc2c1c(=O)[nH]c(=O)n2C | -2.7%
O=C(CSc1ccc2nnc(CCNS(=O)(=O)c3ccccc3)n2n1)Nc1nc2ccccc2s1 | -14.4%
O=C(Cn1cnc2c(OCc3ccccc3)ncnc21)N[C@H](CO)Cc1cc2ccccc2[nH]1 | -4.7%
COc1ccc(C2C(C(C)=O)=C(O)C(=O)N2c2nccs2)cc1 (configuration not stated) | 3.1%
COc1ccc(NCc2cc3cc4c(cc3n(CC(=O)Nc3ccc(F)cc3)c2=O)OCCO4)cc1 | 21.9%
COc1ccc(S(=O)(=O)NC(C(=O)OCC(=O)Nc2ccc(N3CCOCC3)cc2)C(C)C)cc1 (configuration not stated) | 1.6%
Clc1ccc(-c2nnc(-c3ccccc3)nc2N2CCSCC2)cc1 | 7.0%
NCCC(=O)NCCc1cnc[nH]1 | -10.6%&-2.3%
CS(=O)(=O)N(CC(=O)NCc1ccncc1)c1cc(Cl)ccc1Cl | 0.6%
CCc1cc(CNC(=O)CC2C(=O)NCCN2Cc2c(F)cccc2Cl)on1 (configuration not stated) | -6.6%
Nc1cc(=O)[nH]c(SCC(=O)N2CCc3ccccc3C2)n1 | 0.7%
CCOC(=O)c1cc(C(=O)OCC)c2ccccn2c1=O | -4.0%
CCC(=O)Nc1ccc(-c2ccc(N3CCCCC3)nn2)cc1 | 3.2%
Clc1ccc(CN2CCN(c3ncccn3)CC2)cc1Cl | 7.3%
COC(=O)N[C@@H]1C[C@H]2[C@@H]3CC[C@H]4C[C@@H](OC)CC[C@]4(C)[C@H]3CC[C@@]12C | -5.9%
NNS(=O)(=O)c1ccc(N2CCCC2=O)c([N+](=O)[O-])c1 | ?
CCOC(=O)CCC(NC(=O)CC(=O)NC(CCC(=O)OCC)C(=O)OCC)C(=O)OCC (configuration not stated) | -3.0%
Cc1ccc2c(CN(C)Cc3ccc(Cl)cc3)cc(=O)oc2c1 | -1.1%
CN(CC(=O)Nc1ccccc1Cl)C(=O)c1ccccc1Sc1ccccc1C#N | 0.0%
N#Cc1ccccc1CSc1nnc(Cc2ccccc2)o1 | 7.4%
CCOc1ccc(CCNC(=O)CCNS(=O)(=O)c2ccc(Br)cc2)cc1OCC | -10.5%
O=C(NCCN1CCOCC1)C1(C(F)(F)F)CC(CCCO)CCCO1 (configuration not stated) | 10.9%
C=C(C)CNC(=S)NNC(=O)c1ccncc1 | 12.3%
O=C(Oc1ccc(Cl)cc1)N1CCCCC1 | -6.6%
CN(C(=S)Nc1ccc(F)cc1)C(c1ccccc1)c1ccccc1 | 6.4%
CSc1ncc(Cl)c(C(=O)N(Cc2ccc(C(C)C)cc2)C2CCS(=O)(=O)C2)n1 (configuration not stated) | 2.7%
COc1cccc(-c2sc3ccccc3c2-c2ccc(OCCN(C)C)cc2)c1 | -12.1%
COc1ccc(CNC(=O)c2cnc3sc4cc(OC)ccc4n3c2=O)cc1 | 11.5%
COc1ccccc1NC(=O)c1ccc(S(=O)(=O)N2CCCC2)cc1 | -6.0%
CCc1[nH]nc2c1C(c1ccc(Br)s1)C(C#N)=C(N)O2 (configuration not stated) | -25.9%
CCOc1ccc(-c2cc(C(=O)NCCc3ccc(OC)c(OC)c3)[nH]n2)cc1 | -5.1%
CC(C)c1cnc2c(c1SCC(=O)Nc1cccc(F)c1)c(=O)n(C)c(=O)n2C | -6.6%
COC(=O)c1c(C)[nH]c(C(C)=O)c1C | 5.2%
COc1cccc(OC)c1C(=O)Oc1ccc2c(c1)O/C(=C\c1ccncc1)C2=O | ?
CCOCCCn1c(=S)[nH]c2cc(C(=O)N3CCN(c4ccccc4)CC3)ccc2c1=O | 11.4%
CCOc1ccc(N2CC(C(=O)Nc3ccc(OC)c(S(=O)(=O)N4CCCCC4)c3)CC2=O)cc1 (configuration not stated) | -4.0%
CC(C)C(=O)N1CCN(c2ccccc2NC(=O)c2cccc3ccccc23)CC1 | -0.1%
COc1ccc(C(=O)Nc2cc3c(oc2=O)CCCC3=O)cc1 | -8.4%
NC(=O)N/N=C/c1ccccc1OCC(=O)NCc1ccccc1 | -5.8%
Fc1ccc2cnc(C3=CCCCC3)cc2c1 | 2.5%
COc1ccc(OCCOC(=O)C(C)NS(=O)(=O)c2ccc(NC(C)=O)cc2)cc1 (configuration not stated) | 3.4%
CCOC(=O)n1cnc2nc(N)nc(SC)c21 | -15.8%
CSc1ccc(CN(C)C(=O)CNC(=O)CNS(=O)(=O)c2ccc(C)c(C)c2)cc1 | 4.6%
C/C(=N/NC(=O)CN1CCN(Cc2ccccc2)CC1)c1ccc([N+](=O)[O-])cc1 | -1.8%
CC(=O)OCC(=O)[C@@]1(O)CCC2C3CCC4=CC(=O)C=CC4(C)C3C(O)C[C@]21C (some centres not stated) | 0.8%
CC(C)(C)C(=O)CC1(O)C(=O)N(Cc2ccc(Cl)cc2)c2ccccc21 (configuration not stated) | 1.4%
CC(=O)N1CCc2cc(CNC(=O)c3ccccc3Br)ccc21 | 2.8%
Cc1ccc(-c2csc3ncnc(-n4nc(C)cc4N)c23)cc1 | 2.0%
CCOC(=O)C1CCN(C(=O)c2ccccc2NC(C)=O)CC1 | 3.9%
O=C(NC1CC1)c1cc(Cl)ccc1[N+](=O)[O-] | -2.1%
c1ccc(N2CCN(c3nc4cc5c(cc4s3)OCCO5)CC2)cc1 | 7.6%
O=C(CSc1nc2cc3c(cc2c(=O)n1CCC1=CCCCC1)OCO3)NCc1ccco1 | -1.8%
O=C(NCCn1c(C(F)(F)F)nc2cc(C(F)(F)F)ccc21)[C@H]1CCCN1c1nc(CN2CCCCC2)cs1 | -9.4%
O=[N+]([O-])c1cc2c(c(CSc3nnnn3-c3ccc(O)cc3)c1)OCOC2 | 1.4%
COc1cccc(-c2nc(-c3ccccc3)[nH]c(=O)c2C#N)c1 | -24.0%
OCC1(CCOc2ccccc2)CCN(CC2=Cc3cc(Cl)ccc3OC2)CC1 | -1.3%

Next compounds follow.
SMILES | VDR inhibitor
CC1C/C(=N/NC(=O)c2cccs2)CC(C)(C)C1 (configuration not stated) | 0.8%
CN(C(=O)COC(=O)c1cc2ccccc2cc1O)c1c(N)n(Cc2ccccc2)c(=O)[nH]c1=O | -5.8%
CCc1cccc(C)c1NC(=O)CCCN1C(=O)C(c2ccccc2)Oc2cccnc21 (configuration not stated) | 1.0%
COC(=O)c1ccccc1NC(=O)CN1C(=O)COc2ccc(Cl)cc21 | 21.1%
COc1ccc(-c2noc(CN3C(=O)c4ccccc4C3=O)n2)cc1 | -5.3%
O=C(COC(=O)c1ccc(F)cc1)Nc1nc2ccc([N+](=O)[O-])cc2s1 | 6.3%
c1ccc(Oc2cccc(CN3CCCCC3)c2)cc1 | -5.9%
Cc1noc2ncnc(SCc3ccc(C(F)(F)F)cc3)c12 | -9.2%
COc1ccc(N2CC(C(=O)Nc3ccc4c(c3)OCCO4)CC2=O)cc1 (configuration not stated) | -5.8%
CCCN(CC(=O)Nc1ccccc1C)C(=O)C1CCCN(C(=O)c2ccc(Cl)cc2)C1 (configuration not stated) | -15.1%
COc1ccc(CNC(=O)c2cc(Nc3ccc(C)cc3C)nc3ccccc23)cc1 | -17.4%
CC(=O)N1N=C(c2ccccc2)CC1c1cccs1 (configuration not stated) | 2.1%
CN(Cc1cnc2nc(N)nc(N)c2n1)c1ccc(C(=O)NC(CCC(=O)O)C(=O)O)c2ccccc12 (configuration not stated) | -23.4%
Cc1cc(/C=C2\SC(=S)NC2=O)cc(C)c1O | -9.4%
Cc1cc(NC(=O)NC2CCCN2S(=O)(=O)c2ccc(Cl)cc2)no1 (configuration not stated) | 15.0%
Cc1cccc(Nc2nc3c(S(=O)(=O)c4ccc(Br)cc4)nnn3c3ccsc23)c1C | 9.6%
Cc1cc(C)c(NC(=O)CNC(=O)CNC(=O)C2CCCCC2)c(C)c1 | -2.4%
CN(C)C(=O)/C=C\c1cn(-c2ccccc2)nc1-c1ccc2c(c1)OCCO2 | -12.5%
O=C(CN1CCCC1)Nc1c(C(=O)C2CC2)oc2ccccc12 | -6.0%
CC(=NCCN1CCN(C(C)=C2C(=O)c3ccccc3C2=O)CC1)C1=C(O)CC(C)(C)CC1=O | ?
O=C(CSc1nc2[nH]ncc2c(=O)[nH]1)NCc1ccccc1 | -2.7%
CC(=O)Nc1cccc(NC(=O)c2cc3ccccc3o2)c1 | -1.4%
O=C(CSc1nncc2ccccc12)N1CCCCC1 | 10.7%
CCCC(C(=O)N1CCOCC1)N1C(=O)C2C3C=CC(C3)C2C1=O (configuration not stated) | 6.0%
CCOCCCNC(=O)/C(C#N)=C/c1ccc([N+](=O)[O-])o1 | 2.2%
O=C(Nc1cccc(F)c1)OC(CN1CCCCC1)C(F)(F)F (configuration not stated) | 2.2%
Cc1ccc(-n2c(=O)c3oc4ccccc4c3n(Cc3ccccc3)c2=O)cc1C | 7.1%
O=C(Cn1cc(Cl)c([N+](=O)[O-])n1)NCCC1=CCCCC1 | 16.8%
O=C(/C=C/C(=O)Oc1ccccc1C(=O)O)Oc1ccccc1C(=O)O | -14.6%
CN(C)c1nc(-c2cn(CCC#N)c3ccccc23)cs1 | -18.5%
Cc1ccc(N2CCN(C(=O)c3ccccc3NC(=O)/C=C\C(=O)O)CC2)cc1 | -5.6%
CCC(C)Nc1nc2c(C)cccn2c(=O)c1C=Nc1ccc(OC)cc1 (configuration not stated) | -16.9%
Cc1cccn2c(=O)c3cc(S(=O)(=O)c4ccccc4)c(=N)n(Cc4cccnc4)c3nc12 | 4.7%
COc1cc(C2C3=C(CC(C)(C)CC3=O)N(C)C3=C2C(=O)CC(C)(C)C3)cc(Br)c1O | -0.2%
Cc1ccccc1NC(=O)c1cccc(C(=O)Nc2ccccc2C)c1 | -7.0%
Cc1nc(SCC(=O)Nc2ccc(Cl)cc2C(F)(F)F)[nH]c(=O)c1Cc1ccccc1 | -4.1%
COc1ccc2ccccc2c1C(O)c1nccn1C (configuration not stated) | -18.0%
CCOC(=O)c1oc2ccccc2c1COC(=O)CNC(=O)c1ccccc1 | -21.6%
COc1ccc(NC(=O)C(C)SCc2ccccc2)cc1OC (configuration not stated) | -14.2%
O=C(O)c1ccc(S(=O)(=O)N(Cc2ccccc2)Cc2ccccc2)cc1 | -13.5%
CCOc1ccccc1C(=O)NCC(=O)OCC(=O)c1c(N)n(C)c(=O)n(C)c1=O | 4.5%
COc1ccc(-n2c(=S)[nH]c3cc(C(=O)NCc4ccccc4OC)ccc3c2=O)c(OC)c1 | -4.3%
CC(NC(=O)[C@H](NC(=O)[C@@H]1Cc2ccccc2CN1)c1ccccc1)c1ccccc1 (some centres not stated) | -14.7%
C/C(=C\c1cccc(Cl)c1)C(=O)c1c(C)cc(C)[nH]c1=O | 29.7%
Cc1c(Cl)cccc1NC(=S)NCCc1ccccn1 | -15.0%
Cc1ccc(CNC(=O)NC23CC4CC(CC(C4)C2)C3)cc1 | -7.5%
O=C(NNC(=O)c1cc(Br)ccc1O)c1csc(N2CCOCC2)n1 | -0.8%
CCN(C(=O)CCCC(=O)N(CC)c1ccccc1)c1ccccc1 | -9.4%

Rewritten comma-delimited: part of the list above.
SMILES,VDR inhibitor
CC(NC(=O)[C@H](NC(=O)[C@@H]1Cc2ccccc2CN1)c1ccccc1)c1ccccc1 (some centres not stated),-14.7%
C/C(=C\c1cccc(Cl)c1)C(=O)c1c(C)cc(C)[nH]c1=O,29.7%

(list continues)
SMILES | VDR inhibitor
COc1ccccc1NC(=O)CN(c1ccccc1F)S(C)(=O)=O | 28.6%
CCS(=O)(=O)N1CCCc2cc(C(=O)Nc3cccc(C(C)=O)c3)ccc21 | 15.6%
CC(C)CC(C(=O)NC1CCCC1)N(Cc1ccc2c(c1)OCO2)C(=O)c1snc(C(N)=O)c1N (configuration not stated) | -9.6%
COc1ccccc1CC(=O)Nc1ccc2[nH]ncc2c1 | 2.1%
COc1ccc(C(CNc2ccc(S(=O)(=O)N3CCN(C)CC3)cc2[N+](=O)[O-])N(C)C)cc1 (configuration not stated) | -3.9%
O=C(O)CCC(=O)Nc1cc(C(F)(F)F)cc(C(F)(F)F)c1 | -16.4%
COc1cc(-c2nc3c(c(C)nn3-c3ccccc3)c3cc(OC)c(OC)cc23)ccc1O | 10.6%

Compounds above with fluorine:
SMILES | VDR inhibitor
COc1ccc(OCC(=O)Nc2ccc(N3CCN(Cc4ccccc4F)CC3)cc2)cc1 | -16.2%
COc1ccc(NCc2cc3cc4c(cc3n(CC(=O)Nc3ccc(F)cc3)c2=O)OCCO4)cc1 | 21.9%
CCc1cc(CNC(=O)CC2C(=O)NCCN2Cc2c(F)cccc2Cl)on1 (configuration not stated) | -6.6%
O=C(NCCN1CCOCC1)C1(C(F)(F)F)CC(CCCO)CCCO1 (configuration not stated) | 10.9%
CN(C(=S)Nc1ccc(F)cc1)C(c1ccccc1)c1ccccc1 | 6.4%
CC(C)c1cnc2c(c1SCC(=O)Nc1cccc(F)c1)c(=O)n(C)c(=O)n2C | -6.6%
Fc1ccc2cnc(C3=CCCCC3)cc2c1 | 2.5%
O=C(NCCn1c(C(F)(F)F)nc2cc(C(F)(F)F)ccc21)[C@H]1CCCN1c1nc(CN2CCCCC2)cs1 | -9.4%
O=C(COC(=O)c1ccc(F)cc1)Nc1nc2ccc([N+](=O)[O-])cc2s1 | 6.3%
Cc1noc2ncnc(SCc3ccc(C(F)(F)F)cc3)c12 | -9.2%
O=C(Nc1cccc(F)c1)OC(CN1CCCCC1)C(F)(F)F (configuration not stated) | 2.2%
Cc1nc(SCC(=O)Nc2ccc(Cl)cc2C(F)(F)F)[nH]c(=O)c1Cc1ccccc1 | -4.1%
COc1ccccc1NC(=O)CN(c1ccccc1F)S(C)(=O)=O | 28.6%
O=C(O)CCC(=O)Nc1cc(C(F)(F)F)cc(C(F)(F)F)c1 | -16.4%

A portion of the library. The share of hits here may be higher or lower than overall.
